Assay outcomes: PubChem BioAssay, several laboratories
A1 inh: inhibitors of the anti-apoptotic protein A1, read as caspase activation. MEF A1-2A-BIM cells, Caspase-Glo 3/7 luminescence, 3 h; percent of clofoctol response, vehicle zero. caspase activation, % (no concentration beside the values). actives 0.066% (n = 330,000). AID 2462;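 active means over half of replicate activation scores above 10%, or exactly half above 10 with the replicate mean above 10; inconclusive means replicate mean below 10 yet half the replicates above 10; inactive means over half of replicates below 10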;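 further: wells of about 30 µL received 50 nL stock; many hits fall short of the cut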
HNF4A DNA FP: change in binding of human HNF4 alpha to DNA; AID 1224865; HNF4a-FITC DNA binding, fluorescence polarization, 1 h; activity change, % at 10 µM; actives 0.3% (n = 360,000); in the data active means activity change above about 30%, passing the limit was not always enough;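 further: controls were the assay level and a saturating level of protein; the project sought stronger binding though the title names inhibitors; some compounds called inactive have numbers as strong as hits; positive values seem to mean higher polarization but the record does not say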
Beta2AR agonist: agonists of human beta-2 adrenergic receptor inducing internalization; P07550; Am2.2-beta2AR cells, FAP receptor internalization, flow cytometry; reference of the scale not given here; response, % (test concentration not listed); actives 0.43% (n = 340,000);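 active means response above a set limit, near 3 SD of response in nonfluorescent compounds, cut at about 42% in these data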;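 further: stock transfer was 100 nL into about 11 µL; a reference agonist was the positive control; negative values mostly stem from fluorescent compounds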
LANA-H2A inh: blocks KSHV LANA binding to histone H2A/H2B. cell-free LANA-H2A/H2B peptide, fluorescence polarization. inhibition, % (test concentration not listed). actives 0.6% (n = 320,000); in the data active means inhibition mostly above about 10%, no sharp cut-off; inactive means mostly below about 6.7%;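 further: stock transfer was 7.5 nL into about 10 µL; 0% = median of vehicle wells and 100% = median of positive control wells; one replicate is shown; the record names a cut of 25% in any replicate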
Target sequence (Q9QR71 whole entry, looked up): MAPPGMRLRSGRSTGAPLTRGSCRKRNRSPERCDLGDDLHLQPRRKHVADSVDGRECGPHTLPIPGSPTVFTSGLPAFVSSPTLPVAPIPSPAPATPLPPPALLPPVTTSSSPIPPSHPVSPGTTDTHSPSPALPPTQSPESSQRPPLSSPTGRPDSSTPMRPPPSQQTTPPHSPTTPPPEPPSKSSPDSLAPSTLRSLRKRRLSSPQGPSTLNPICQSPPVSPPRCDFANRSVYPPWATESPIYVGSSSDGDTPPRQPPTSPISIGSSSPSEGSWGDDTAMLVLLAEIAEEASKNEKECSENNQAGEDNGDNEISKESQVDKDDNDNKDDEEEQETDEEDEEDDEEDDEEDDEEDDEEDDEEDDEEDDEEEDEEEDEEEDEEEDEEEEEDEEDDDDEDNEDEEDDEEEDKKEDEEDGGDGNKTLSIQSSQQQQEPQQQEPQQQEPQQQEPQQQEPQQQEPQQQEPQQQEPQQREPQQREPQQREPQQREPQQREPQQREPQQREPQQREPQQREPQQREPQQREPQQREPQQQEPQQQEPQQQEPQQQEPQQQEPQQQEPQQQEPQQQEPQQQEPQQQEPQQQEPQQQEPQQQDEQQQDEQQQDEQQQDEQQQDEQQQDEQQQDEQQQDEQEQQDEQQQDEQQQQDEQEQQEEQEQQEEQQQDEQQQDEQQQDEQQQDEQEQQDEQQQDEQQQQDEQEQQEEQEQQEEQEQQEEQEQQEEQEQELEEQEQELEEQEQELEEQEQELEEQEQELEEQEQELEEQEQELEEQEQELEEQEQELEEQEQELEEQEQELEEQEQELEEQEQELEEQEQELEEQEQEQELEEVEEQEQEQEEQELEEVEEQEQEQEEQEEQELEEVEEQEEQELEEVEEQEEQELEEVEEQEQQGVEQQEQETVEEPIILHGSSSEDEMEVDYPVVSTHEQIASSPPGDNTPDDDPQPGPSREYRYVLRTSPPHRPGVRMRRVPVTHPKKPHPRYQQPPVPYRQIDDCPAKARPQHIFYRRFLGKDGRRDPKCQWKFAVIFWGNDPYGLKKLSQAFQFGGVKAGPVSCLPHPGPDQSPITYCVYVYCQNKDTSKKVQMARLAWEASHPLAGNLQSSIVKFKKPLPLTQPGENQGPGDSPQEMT
UCH37 DUB inh: blocks the human deubiquitinase UCH37; Q9Y5K5; purified proteasome/UCH37, Ub-AMC cleavage fluorescence; inhibition, % (test concentration not listed); actives 0.33% (n = 330,000);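 active means mean of two replicates above 20%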;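 further: 0% = compound-free wells with enzyme and 100% = wells lacking proteasome; stock transfer was 100 nL into about 20 µL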
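Assay system: Proteasome-bound UCH37. Buffer or medium: pH 7.4 Tris-HCl (50 mM) with ovalbumin, ATP-MgCl2, DTT. Incubation: 30 min preincubation with enzyme, 25 min cleavage at room temperature. Measured by: fluorescence, ex 355 nm, em 460 nm. Read-out basis: percent inhibition. Control set: wells without proteasome as full block, compound-free enzyme plus substrate as uninhibited.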
Ecoli growth: inhibitors of Escherichia coli growth. OD600, 23 h; active compounds read low. OD600 absorbance (concentration not given with the values). actives 0.21% (n = 330,000). AID 1053175;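 active means OD600 absorbance below the run mean of sample wells minus 3.6 SD, in any replicate, cut at about 0.56 in these data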;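 further: stock transfer was 300 nL into about 60 µL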
Vif A3G: HIV-1 Vif–A3G interaction blockers – biochemical, TR-FRET, GST-Vif 1-94, biotin-A3G peptide, dose response retest, primary screen (AID 1117319); TR-FRET GST-Vif / biotin-A3G peptide binding; higher % means a stronger effect; test concentration not given here; strong numbers were not always called active; inhibition, %; hits with a dose series show IC50 in µM; actives 0.57% (n = 260,000);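 active means above the screen mean plus three standard deviations and confirmed in dose response; inconclusive means results disagree or hit not tested in dose response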;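 further: Vif residues 1-94 fused to GST binding biotinylated APOBEC3G peptide 110-148; 0% = full assay without inhibitor and 100% = GST in place of GST-Vif; retest series ran down from 100 µM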
Active calls of the source: *; i = inactive; ? = inconclusive; nt = no result given; & = joins results of further samples.

SMILES	A1 inh	HNF4A DNA FP	Beta2AR agonist	LANA-H2A inh	UCH37 DUB inh	Ecoli growth	Vif A3G
CN(C)/C=C/c1onc(-c2ccccc2Cl)c1C#N	1.0	7.3	8.3	0.7	4.4	nt	23.1%
O=C(NNC(=O)c1ccncc1)c1ccncc1	0.3	0.5	3.2	6.9	6.2	0.702	-4.0%
Cc1ccc(S(=O)(=O)N/N=C\c2cn(CC(N)=O)c3ccccc23)cc1C	1.5	-1.9	8.3	2.7	nt	nt	nt
CCOc1ccc(C(C(=O)Nc2ccc(F)cc2)N(C(=O)Cn2nnc3ccccc32)C2CC2)cc1 (stereo not drawn)	0.2	-3.2	5.1	0.1	-2.0	0.712	22.4%
O=C(NC(=S)Nc1ccc(S(=O)(=O)Nc2nccs2)cc1)c1ccccc1F	0.0	4.8	-6.3	-4.6	1.5	0.736	nt
C=CCn1c(Cc2ccc(OC)cc2)nnc1SCC(=O)c1cccc([N+](=O)[O-])c1	-0.7	1.8	-7.3	12.4	1.4	0.641	22.2%
COc1ccc(C2C(C#N)=C(N)Nc3nc4ccccc4n32)cc1 (stereo not drawn)	1.1	2.8	-14.0	-0.3	-6.7	0.712	30.8%
O=C(O)c1cccc2c1C(=O)N(C1CCCCC1)C2	-0.8	-8.2	12.2	-4.4	0.9	0.786	13.7%
N#CCC(=O)N/N=C\c1ccccc1OC/C=C/c1ccccc1	-1.5	-0.2	4.0	12.8	nt	nt	nt
O=C(O)c1sccc1Oc1ccc(NS(=O)(=O)c2cccc(F)c2)cc1	-0.6	-3.6	-8.7	-1.2	0.9	0.67	3.9%
CC1CCc2sc3c(c2C1)c(=O)n(CC(=O)O)c(=O)n3Cc1ccc(Cl)cc1 (stereo not drawn)	0.1	-3.7	-0.9	4.4	-1.7	0.666	-3.1%
Cc1ccc2cc(N)ccc2n1	nt	-6.4	1.7	nt	0.9	0.698	-0.6%
O=C(NC1CCSc2ccccc21)c1ccc(C(F)(F)F)cc1 (stereo not drawn)	-0.6	1.0	4.5	10.3	1.2	0.713	nt
COc1ccc(N2C(=O)C3C(C2=O)C2C=CC3C23CC3)c(OC)c1 (stereo not drawn)	0.3	-3.1	2.6	6.9	6.2	0.751	10.8%
CCOCCCNC(=O)CN1C(=O)COc2ccc(S(=O)(=O)N3CCCC3)cc21	-0.3	-1.1	13.7	0.5	2.6	0.718	nt
COc1cccc(C2CC(C(F)(F)F)n3ncc(C(=O)Nc4c(C)n(C)n(-c5ccccc5)c4=O)c3N2)c1 (stereo not drawn)	0.1	1.2	-4.5	1.9	3.4	0.719	nt
CC(SCC(=O)Nc1ccc(F)cc1)c1nc2ccccc2c(=O)[nH]1 (stereo not drawn)	0.0	4.6	2.7	3.4	1.7	0.628	nt
COc1ccccc1/C=C/C=N/n1c(-c2ccccn2)n[nH]c1=S	-0.1	-4.1	12.8	1.8	nt	nt	0.7%
Cc1c(OC(C)C(=O)NCCCN2CCOCC2)ccc2c1oc(=O)c1ccccc12 (stereo not drawn)	0.2	-4.4	-1.5	-10.3	-338.2	0.677	nt
COc1ccc(NS(=O)(=O)c2ccc(O)c(NC(=O)c3cc4c(C)nn(-c5ccc(F)cc5)c4s3)c2)cc1	0.3	-29.0	7.2	1.3	-39.0	0.698	-2.4%
Cc1ccc(NC(=O)c2sccc2C)cc1S(=O)(=O)N(C)C	0.7	-1.2	38.5	-1.7	4.9	0.721	-11.4%
COc1cc(/C=C2\SC(=Nc3c(C)n(C)n(-c4ccccc4)c3=O)NC2=O)ccc1O	nt	8.9	3.1	nt	8.0	0.696	20.9%
CSc1nnc2c3ccccc3n(Cc3ccccc3)c2n1	1.0	2.2	-7.1	0.3	0.4	0.773	-1.4%
O=C(N1CCOCC1)N(Cc1ccco1)CC1CCCO1 (stereo not drawn)	0.3	-3.0	2.2	nt	-0.3	0.737	8.0%
O=S(=O)(NCc1cccnc1)c1cccc2nsnc12	?	0.5	10.2	3.5	2.1	0.659	1.5%
Continued:
SMILES	A1 inh	HNF4A DNA FP	Beta2AR agonist	LANA-H2A inh	UCH37 DUB inh	Ecoli growth	Vif A3G
COc1cccc(NC(=O)[C@@H]2CCCN2S(=O)(=O)c2cccc3cccnc23)c1	0.1	1.9	-4.3	-1.7	0.3	nt	nt
O=C1COc2ccc(C(=O)COC(=O)C3CCN(S(=O)(=O)c4cccs4)CC3)cc2N1	0.4	0.6	2.8	-1.8	-0.3	0.709	-18.4%
COc1ccc(C(=O)NCC(C)NC(=O)c2ccc(OC)c(OC)c2)cc1OC (stereo not drawn)	-0.4	2.4	-4.9	1.5	3.2	0.664	nt
O=C1CCCN1CC1CCCN(Cc2nc(COc3ccccc3)no2)C1 (stereo not drawn)	-1.0	1.5	-4.5	1.2	1.0	0.67	7.9%
COc1cc(C(=O)Nc2ccc(O)cc2)ccc1OC(C)=O	-12.1	1.1	0.2	3.0	3.3	0.707	2.2%
CC1(NCc2ccc(Cl)cc2)COP(=O)(NCc2ccccc2)OC1 (stereo not drawn)	nt	-4.2	-4.3	nt	nt	nt	2.0%
COc1cc(OC)cc(C(=O)NC(=S)Nc2nc(-c3cc4ccccc4o3)cs2)c1	-0.7	2.8	-1.3	-6.9	3.1	0.726	-8.3%
O=C(CN1CCN(c2ccccc2)CC1)Nc1cccc([N+](=O)[O-])c1	0.0	-4.4	-4.3	-9.8	3.9	0.625	0.6%
CCC(C)(C)NC(=O)COc1ccc(OCc2ccccc2)cc1	0.2	1.1	4.2	4.7	2.8	0.68	14.8%
O=S(=O)(c1ccccc1)N1CCC(n2nnc3cc(F)ccc32)CC1	0.6	0.6	-0.7	-2.8	2.4	0.671	-11.4%
COc1ccc(CCNC(=O)C2CC(=O)N(CCc3ccc(C)cc3)C2)cc1OC (stereo not drawn)	0.0	-1.3	-1.2	1.4	1.2	0.732	15.6%
CCOc1nc(C)ccc1-c1noc(-c2ccccn2)n1	0.3	3.0	-10.3	-5.0	-1.5	0.733	5.6%
CC12CCC(C(=O)N3CCN(C(c4ccccc4)c4ccccc4)CC3)(OC1=O)C2(C)C (stereo not drawn)	0.2	0.9	0.2	-1.4	-0.2	0.703	15.2%
CN(C1CCCC1)C1CCN(C(=O)CNC(=O)/C=C/c2cccc(C(F)(F)F)c2)CC1	0.3	0.7	-2.9	2.8	-1.2	0.677	-6.0%
Cc1nnc(SCc2ccc(CC(=O)O)cc2)o1	0.0	-0.7	-4.6	-2.5	4.7	0.725	-3.4%
COc1cc(/C=N/N2C(C)CCCC2C)cc(OC)c1O (stereo not drawn)	-0.7	0.8	-7.7	2.1	nt	nt	-3.3%
CC(O)[C@H]1CC[C@H]2[C@@H]3CC[C@H]4C[C@H](O)CC[C@]4(C)[C@H]3[C@H](O)C[C@]12C (stereo partly drawn)	0.5	0.0	3.9	1.4	1.9	nt	nt
CC1(C)Nc2ccccc2N(Cc2ccc([N+](=O)[O-])cc2)C1=O	-0.9	2.0	2.6	-1.2	6.3	0.683	?
CC(=O)Nc1cccc(NC(=O)CSc2nc(C)c(C)c(C)c2C#N)c1	-0.5	0.1	-1.1	0.1	2.2	0.728	-0.9%
C[n+]1ccccc1/C=C/c1cc(Br)ccc1O	0.3	2.9	-2.3	0.0	8.9	0.66	nt
Cn1c(CC(=O)Nc2cccc(Cl)c2Cl)nnc1SCC(=O)NC1=NCCS1	-0.5	-0.6	-6.4	5.0	4.4	0.686	nt
COc1ccc(NC(=O)CSc2cn[nH]n2)cc1OC	-0.2	-1.9	-8.2	-3.0	5.9	0.695	nt
COC(=O)CNC(=O)C1CCN(C(=O)OCc2ccccc2)CC1	-0.6	-2.3	18.2	2.9	-0.3	0.762	-0.9%
CON(C)C(=O)/C=C/CCCCNC(=O)OC(C)(C)C	nt	4.6	-0.6	nt	3.3	nt	nt
Fc1ccc(-c2nc(-c3cnccn3)no2)c(Cl)c1	-7.2	3.3	0.6	-1.7	2.6	0.685	-11.3%

Reformatted in CSV form: entries from further up.
Compound,A1 inh,HNF4A DNA FP,Beta2AR agonist,LANA-H2A inh,UCH37 DUB inh,Ecoli growth,Vif A3G
O=C1COc2ccc(C(=O)COC(=O)C3CCN(S(=O)(=O)c4cccs4)CC3)cc2N1,0.4,0.6,2.8,-1.8,-0.3,0.709,-18.4%
COc1ccc(C(=O)NCC(C)NC(=O)c2ccc(OC)c(OC)c2)cc1OC (stereo not drawn),-0.4,2.4,-4.9,1.5,3.2,0.664,nt
O=C1CCCN1CC1CCCN(Cc2nc(COc3ccccc3)no2)C1 (stereo not drawn),-1.0,1.5,-4.5,1.2,1.0,0.67,7.9%

Later entries
SMILES	A1 inh	HNF4A DNA FP	Beta2AR agonist	LANA-H2A inh	UCH37 DUB inh	Ecoli growth	Vif A3G
CN(CCO)CC(O)Cn1cnc2c1c(=O)n(C)c(=O)n2C (stereo not drawn) (tested in a mixture with another compound)	0.0	nt	0.2	3.7	2.3	0.679	21.4%
O=C(NCC1CCCO1)C(c1cccs1)N(C(=O)c1ccc(CN2CCOCC2)o1)c1ccc(Cl)cc1 (stereo not drawn)	-1.0	0.9	10.2	3.2	3.1	0.724	nt
O=C(O)c1cccc(-c2ccc(/C=N/Nc3ccc([N+](=O)[O-])cc3)o2)c1	-3.1	124.2	-187.7	-1.9	nt	nt	12.9%
CN(C)C(=O)COC(=O)c1ccccc1Sc1ccccc1C#N	0.5	3.0	-10.2	2.3	0.0	0.608	nt
CCC(CC)n1c(C)cc(=O)n1C(CC)CC	nt	4.4	0.0	nt	nt	nt	-9.9%
CCCc1ccc2oc(C(=O)N3CCC(COC)C3)c(C)c2c1 (stereo not drawn)	1.0	3.2	-3.5	-2.4	3.2	0.612	nt
C=CCNC(=O)c1ccc2c(=O)n(Cc3ccccc3OC)c(=S)[nH]c2c1	1.0	1.8	1.4	4.7	1.9	0.702	5.0%
CC(C)CO/C(=N/S(=O)(=O)c1ccccc1)c1ccccc1	0.5	-2.3	1.3	-3.0	nt	nt	4.5%
CC(NC(=O)C1CCN(C(=O)[C@@H]2Cc3ccccc3CN2C(=O)OC(C)(C)C)CC1)c1ccccc1 (stereo partly drawn)	0.0	2.3	-3.7	-0.4	-0.7	0.733	7.0%
O=C(CSc1nc2ccccc2c(=O)n1-c1ccccc1)NCc1ccco1	-0.7	1.6	-6.5	10.1	0.8	0.686	23.2%
CCOC(=O)C(Oc1ccc(=O)n(-c2ccccc2)n1)C(C)=O (stereo not drawn)	-0.1	1.1	-8.8	-2.4	2.0	0.634	?
CCOc1ccccc1NC(=O)CCn1nc(C)c(S(=O)(=O)N2CCCCC2)c1C	0.4	-5.4	-11.5	8.5	-0.7	0.68	nt
O=C(O)c1cccc(Nc2ncnc3sccc23)c1	-5.9	-6.7	-0.3	2.8	0.3	0.705	-1.4%
O=C(CCn1c(=O)oc2ccccc21)Nc1cccc([N+](=O)[O-])c1	0.0	-0.7	6.2	3.9	5.1	0.724	nt
CN(C(=O)c1ccc2c(c1)S(=O)(=O)N=C1CCCCCN12)c1ccccc1	1.4	-0.6	-4.8	2.0	0.7	0.654	0.8%
Cc1c(C(=O)N2CCc3ccccc3C2)oc2ccccc12	-0.1	10.0	-6.2	-1.0	1.0	0.686	nt
COC(=O)[C@]1(C)CCC[C@@]2(C)C3CC[C@]4(OC(C)=O)C[C@@]3(CCC21)CC4=O (stereo partly drawn)	-1.3	4.5	4.3	-4.5	1.6	0.717	nt
CN(C)CCNC(=O)c1cc2c(s1)-c1ccccc1OC2	0.5	5.2	30.7	3.7	i	0.711	2.1%
CC(C)(C)c1ccc(OCC(=O)N/N=C/C2CC=CCC2)cc1 (stereo not drawn)	0.0	-3.5	13.6	nt	nt	nt	-3.1%
CC(=O)OCC(=O)[C@@]1(O)CC[C@H]2[C@@H]3CCC4=CC(=O)C=C[C@]4(C)[C@H]3[C@@H](O)C[C@@]21C	0.2	-5.2	-1.4	8.1&-11.6	1.6	nt	4.4%
